Screening data: PubChem BioAssay, several laboratories
ALR H2O2 inh = human ALR oxidase inhibition via reduced H2O2; AID 485317; inhibition, % (no concentration beside the values); purified ALR, DTT oxidation, H2O2 HRP-luminol luminescence; 3.8% of 290,000 active;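 active = mean and each replicate at 75% or more; inconclusive = only one of the two met; inactive = neither met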;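 note: stock transfer was 7.5 nL into about 7.5 µL; 0% = neutral wells and 100% = wells with inactivated enzyme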
Target sequence (P55789 whole entry, looked up): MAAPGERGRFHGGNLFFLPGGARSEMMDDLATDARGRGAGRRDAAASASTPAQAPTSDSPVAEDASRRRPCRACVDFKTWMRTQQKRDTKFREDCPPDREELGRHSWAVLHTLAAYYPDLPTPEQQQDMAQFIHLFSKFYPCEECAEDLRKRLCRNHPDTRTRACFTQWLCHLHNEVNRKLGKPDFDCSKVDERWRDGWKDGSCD
MLL AF4-AF9 inh = MLL-AF4/AF9 protein interaction inhibition; 0.47% of 350,000 active; AlphaScreen, biotin-AF4 peptide binding to FLAG-AF9; AID 651704; inhibition, % at 10 µM;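 active = every replicate reaching a set inhibition limit, whatever the replicate mean, cut at about 25% in these data; inconclusive = mean inhibition reaches that limit but some replicates miss it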;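 note: 0% = plate neutral control median and 100% = total signal loss; the record names both 10 and 1 µM as test concentration; the first replicate is given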
Target sequence (P42568 whole entry, looked up): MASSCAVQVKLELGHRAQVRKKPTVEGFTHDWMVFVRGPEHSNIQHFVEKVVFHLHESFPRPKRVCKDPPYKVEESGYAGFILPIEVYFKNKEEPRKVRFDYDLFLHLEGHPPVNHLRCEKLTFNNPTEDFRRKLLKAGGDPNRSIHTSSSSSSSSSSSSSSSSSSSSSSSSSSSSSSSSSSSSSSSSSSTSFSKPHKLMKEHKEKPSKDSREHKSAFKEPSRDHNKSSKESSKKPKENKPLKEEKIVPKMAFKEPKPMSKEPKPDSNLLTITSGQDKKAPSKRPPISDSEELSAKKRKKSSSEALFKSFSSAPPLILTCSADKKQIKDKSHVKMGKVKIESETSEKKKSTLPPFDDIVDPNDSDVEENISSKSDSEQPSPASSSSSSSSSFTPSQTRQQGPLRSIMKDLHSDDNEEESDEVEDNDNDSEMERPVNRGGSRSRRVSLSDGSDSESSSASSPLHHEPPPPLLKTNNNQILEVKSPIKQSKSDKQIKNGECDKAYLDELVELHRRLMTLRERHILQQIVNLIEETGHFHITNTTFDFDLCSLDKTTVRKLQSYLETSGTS
Vif TR-FRET = HIV-1 Vif–A3G interaction blockers – biochemical, TR-FRET, GST-Vif 1-94, biotin-A3G peptide, dose response retest, primary screen (AID 1117319) | 0.57% of 260,000 active | TR-FRET GST-Vif / biotin-A3G peptide binding; higher % means a stronger effect; test concentration not given here; strong numbers were not always called active | inhibition, %; hits with a dose series show IC50 in µM;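 active = above the screen mean plus three standard deviations and confirmed in dose response; inconclusive = results disagree or hit not tested in dose response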;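 note: Vif residues 1-94 fused to GST binding biotinylated APOBEC3G peptide 110-148; 0% = full assay without inhibitor and 100% = GST in place of GST-Vif; retest series ran down from 100 µM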
E coli growth = inhibitors of Escherichia coli growth | OD600, 23 h; active compounds read low | 0.21% of 330,000 active | AID 1053175 | OD600 absorbance (test concentration not listed);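 active = OD600 absorbance below the run mean of sample wells minus 3.6 SD, in any replicate, cut at about 0.56 in these data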;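 note: stock transfer was 300 nL into about 60 µL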
Ecoli rRNA inh = inhibitors of bacterial rRNA selective over humanized ribosomes; 1.6% of 350,000 active; GFP signal change (wild-type ribosome), % (concentration not given with the values); E. coli WT GFP vs humanized-ribosome RFP mutants, fluorescence, 24 h; active compounds read low; DMSO median 0, no signal -100; AID 720706;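 active = significant combined selectivity score with lowered wild-type GFP, culture density cut under 30%, mutant RFP and density less affected; inactive = any of these conditions unmet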; note: one replicate is shown; some compounds called inactive have numbers as strong as hits
FGF22 binding = binders of recombinant human FGF22 by thermal shift. Q9HCT0. SYPRO orange fluorescence; percent of sucrose octasulfate shift, DMSO zero. calls only at 9.99 µM. 1.5% of 340,000 active. AID 651658;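 active = melting point raised past a set limit in the mean and every replicate; inconclusive = no clear call; three in four hits are not shown here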
Target sequence (Q9HCT0 whole entry, looked up): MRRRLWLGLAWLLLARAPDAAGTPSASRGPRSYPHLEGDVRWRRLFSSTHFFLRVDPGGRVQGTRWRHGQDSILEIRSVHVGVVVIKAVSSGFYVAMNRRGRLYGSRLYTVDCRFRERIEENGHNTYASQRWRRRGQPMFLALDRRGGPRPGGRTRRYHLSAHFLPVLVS
HNF4A DNA FP = change in binding of human HNF4 alpha to DNA; P41235; HNF4a-FITC DNA binding, fluorescence polarization, 1 h; activity change, % at 10 µM; 0.3% of 360,000 active; AID 1224865; in the data active = activity change above about 30%, passing the limit was not always enough;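 note: controls were the assay level and a saturating level of protein; the project sought stronger binding though the title names inhibitors; some compounds called inactive have numbers as strong as hits; positive values seem to mean higher polarization but the record does not say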
Ecoli rRNA inh OD600 = second read-out of Ecoli rRNA inh, no call of its own (marks repeat the call); OD600 change, %; measured here: OD600 growth;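 optical density of the mix in the first replicate; 0 = DMSO median and -100 = no signal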
Ecoli rRNA inh RFP = recorded beside Ecoli rRNA inh, whose call it bears; RFP signal change, %; measured here: RFP humanized mutant strains;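 first replicate; 0 = DMSO median and -100 = no signal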
Numbers without * were called inactive; i = inactive; ? = inconclusive; . = not tested or not shown.

SMILES	ALR H2O2 inh	MLL AF4-AF9 inh	Vif TR-FRET	E coli growth	Ecoli rRNA inh	Ecoli rRNA inh OD600	Ecoli rRNA inh RFP	FGF22 binding	HNF4A DNA FP
CC(C)(C)c1ccc(C(=O)C2CC2)cc1	.	3.7	-3%	.	11	9	1.0	i	-2.2
COc1ccc(S(=O)(=O)N(C)C[C@@H]2OCCCC[C@H](C)Oc3ccc(NS(=O)(=O)c4ccc(Cl)cc4)cc3C(=O)N([C@H](C)CO)C[C@@H]2C)cc1	.	0.4	.	.	1	8	-2.7	i	.
Cc1cc(-c2ccccc2)nc(N/N=C/c2ccc(O)cc2)n1	.	0.7	17%	.	-7	-1	-0.1	i	7.2
CCN(CC(=O)Nc1ccc2c(c1)OCCO2)CC(=O)Nc1cc(C)on1	-4	.	3%	0.7	.	.	.	.	-0.3
COc1cc(OC)cc(C(=O)N2CCC(N3CCCCCC3)CC2)c1	0	.	3%	0.63	.	.	.	.	-2.6
CO[C@@H]1CN(C)C(=O)c2cc(NC(=O)C3CC3)ccc2OC[C@H](C)N(Cc2ccncc2)C[C@H]1C	.	0.3	.	.	0	4	-0.3	i	.
COc1ccc(C)cc1Nc1nnc(C)c(=O)[nH]1	.	-0.4	.	0.64	18	5	0.8	i	-2.4
O=c1cc(CO)oc(CN2CCN(c3ccccc3F)CC2)c1O	5	.	25%	0.77	.	.	.	.	-1.6
O=C(Cc1ccccc1)NC(NNc1ccccc1)(C(F)(F)F)C(F)(F)F	-14	.	1%	0.68	.	.	.	.	2.5
CCOc1ncccc1C(=O)Nc1cc(S(=O)(=O)N2CCOCC2)ccc1OCC(F)(F)F	-2	-3.6	-76%	0.72	9	24	-0.4	i	2.8
O=C(NCC1CCCO1)C12CN(Cc3ccccc3)CC1C(c1cccc([N+](=O)[O-])c1)=NO2 (centres undefined)	-5	3.9	?	0.7	7	4	0.8	i	5.3
O=[N+]([O-])c1cccc(C2NCC(c3ccccc3Cl)c3c2[nH]c2ccccc32)c1 (centres undefined)	-5	11	8%	0.72	-30	-41	43	.	-3.4

Three compounds out of the list, sorted by heavy-atom count, largest number first:
SMILES	ALR H2O2 inh	MLL AF4-AF9 inh	Vif TR-FRET	E coli growth	Ecoli rRNA inh	Ecoli rRNA inh OD600	Ecoli rRNA inh RFP	FGF22 binding	HNF4A DNA FP
COc1ccc(S(=O)(=O)N(C)C[C@@H]2OCCCC[C@H](C)Oc3ccc(NS(=O)(=O)c4ccc(Cl)cc4)cc3C(=O)N([C@H](C)CO)C[C@@H]2C)cc1	.	0.4	.	.	1	8	-2.7	i	.
O=C(NCC1CCCO1)C12CN(Cc3ccccc3)CC1C(c1cccc([N+](=O)[O-])c1)=NO2 (centres undefined)	-5	3.9	?	0.7	7	4	0.8	i	5.3
COc1ccc(C)cc1Nc1nnc(C)c(=O)[nH]1	.	-0.4	.	0.64	18	5	0.8	i	-2.4

(listing goes on)
SMILES	ALR H2O2 inh	MLL AF4-AF9 inh	Vif TR-FRET	E coli growth	Ecoli rRNA inh	Ecoli rRNA inh OD600	Ecoli rRNA inh RFP	FGF22 binding	HNF4A DNA FP
CCOc1ccc(C2=C(C=Nc3c(C)n(C)n(-c4ccccc4)c3=O)C(c3ccc(F)cc3)c3ccccc3O2)cc1 (centres undefined)	6	.	0%	0.82	.	.	.	.	5.0
C[C@H]1CN([C@@H](C)CO)C(=O)Cc2cc(NC(=O)Cc3ccccc3)ccc2O[C@H]1CN(C)C(=O)Nc1ccc(C(F)(F)F)cc1	.	-1.6	.	.	1	0	0.4	i	.
C[C@@H]1CCCCO[C@@H](CN(C)CC2CC2)[C@H](C)CN([C@@H](C)CO)C(=O)c2cc(NS(=O)(=O)c3ccccc3)ccc2O1	.	3.4	.	.	2	12	-1.8	i	.
C[C@@H]1CN([C@H](C)CO)C(=O)c2c(c3ccccc3n2C)-c2ccccc2CO[C@H]1CN(C)S(=O)(=O)c1ccc(C#N)cc1	.	5.5	.	.	1	-1	0.8	i	.
O=C(C[C@@H]1C=C[C@H](NC(=O)C2CCOCC2)[C@@H](CO)O1)NCc1ccncc1	.	-0.2	.	.	1	0	-0.5	i	.
CCC(C)n1cnc2c(c1=O)c1nc3ccccc3nc1n2Cc1ccccc1OC (centres undefined)	-1	.	-1%	0.72	.	.	.	.	1.7
C[C@@H]1CN([C@@H](C)CO)C(=O)c2cc(NC(=O)Cc3ccccc3)ccc2O[C@H]1CN(C)S(=O)(=O)c1ccc(Cl)cc1	.	-4.1	.	.	-3	-8	3.8	i	.
CCOC(=O)c1cnc2c(-c3ccccc3)cnn2c1C	.	-0.8	.	0.69	3	-5	-2.1	i	-4.8
COc1ccc(NC(=O)c2cc3c(Cl)nc4ccccc4c3s2)c(OC)c1	-3	0.6	.	.	13	14	-0.8	i	5.0
O=c1c([N+](=O)[O-])c(N2CCOCC2)c2ccccc2n1Cc1ccccc1	-1	4.9	-4%	0.72	-18	-12	-0.4	i	4.5
CC1(C(=O)O)CCCN1C(=O)c1ccco1 (centres undefined)	.	-0.4	.	.	5	17	-2.5	i	2.4
CO[C@@H]1CN(C)C(=O)c2ccc(NC(=O)CC(F)(F)F)cc2OC[C@H](C)N(S(=O)(=O)c2cn(C)cn2)C[C@H]1C	.	-0.7	.	.	3	4	2.0	i	.
COCC1CCCCN1C(=O)c1cc(COc2ccc(C)c(C)c2)on1 (centres undefined)	.	-1.0	0%	.	9	-29	-5.1	i	-1.0
COc1cc(/C(C)=N\NC(N)=S)cc(OC)c1OC	8	0.5	3%	.	-7	6	-3.0	i	3.6
Cc1ccc(C(=O)N2CCCCC2)cc1S(=O)(=O)N1CCCC1	-2	-1.0	.	0.67	7	6	4.4	i	1.4
Cc1ccc(CNC(=O)C2CCCN2C(=O)NCc2ccccc2)cc1 (centres undefined)	-3	.	-3%	0.69	.	.	.	.	1.1
O=C(Nc1ccccc1C(=O)NCCCn1ccnc1)c1ccccc1	5	-43	2%	0.67	-7	-21	-20	i	-8.4
O=C(Nc1ccc(Br)cn1)c1cccc2c1-c1ccccc1C2=O	33	-0.2	-13%	0.66	19	21	2.5	i	-2.0
CCOC(=O)c1c(C)[nH]c(C)c1C(=O)COC(=O)C1CCCN1S(=O)(=O)c1ccccc1F (centres undefined)	6	.	-1%	0.67	.	.	.	.	1.1
COc1cc(OC)cc(C(=O)NCc2nc(-c3ccccc3)no2)c1	-4	-3.1	28%	0.69	7	4	-1.8	i	4.0
COc1cc2cc(C(N)=O)c(N)nc2cc1OC	-25	.	19%	0.71	.	.	.	.	1.2
NC(=O)COC(=O)c1ccccc1SCC(=O)NC1CCCCCC1	-4	-23	-5%	0.71	9	9	11	i	4.0
Cc1ccc2c(C)c(C(=O)NCc3ccc(S(N)(=O)=O)cc3)oc2c1	-16	-1.4	10%	0.72	5	-5	3.6	i	-3.9
O=C(N1CCc2[nH]c3ccccc3c2C1)C(F)(F)F	7	-3.7	-2%	0.66	11	15	1.3	i	0.7
C/C=C/c1ccc([C@@H]2[C@H](CO)N(CC3CC3)C23CN(S(C)(=O)=O)C3)cc1	.	2.3	.	.	4	1	0.9	i	.
CCOC(=O)c1ccc(NC(=O)CCc2c(C)nc3ncnn3c2C)cc1	-3	.	3%	0.65	.	.	.	.	1.2
C[C@@H]1CN([C@@H](C)CO)C(=O)Cc2cc(NS(=O)(=O)c3ccc(F)cc3)ccc2O[C@H]1CN(C)C	.	-1.8	.	.	1	2	-1.5	i	.
Cc1ccc(CN(C(=O)COc2ccc(Br)cc2)C2CCS(=O)(=O)C2)o1 (centres undefined)	-5	5.5	-1%	0.71	-10	-9	0.5	i	-0.8
CCOc1cc(N2CCOCC2)c(OCC)cc1NS(=O)(=O)c1ccc2c(c1)CC(=O)N2	.	9.9	10%	.	-1	11	-3.0	i	-2.7
CN(Cc1ccccc1)C(=O)COC(=O)CN1C(=O)c2ccccc2C1=O	5	-1.4	.	0.67	17	14	1.2	i	-0.2
O=C(CSc1nc2ccccc2n1CCc1ccccc1)N1CCOCC1	16	-2.1	.	0.7	-23	-29	-8.0	i	-6.7
CCCNC(=O)N1CC2(CCN(Cc3nccs3)CC2)c2c([nH]c3cc(OC)ccc23)[C@@H]1CO	.	1.7	.	.	-5	3	0.3	i	.
CC(C)(C)OC(=O)C1=C(CO)CS[C@@H]2[C@H](NC(=O)Cc3ccccc3)C(=O)N12	.	-6.3	-5%	0.72	16	10	-0.3	i	-1.9
COc1ccc(C(=O)N2CCC(O)(c3ccc(Cl)cc3)CC2)cc1OC	-11	.	.	0.64	-6	-17	-2.2	i	4.2
CCCCN(C(=O)C1=COCCO1)c1c(N)n(Cc2ccccc2)c(=O)[nH]c1=O	1	-0.6	5%	0.68	11	8	4.1	i	0.5
O=C1CC(=C(c2ccccc2)c2ccccc2)C(=O)N1CCCCN1CCN(c2cccc(Cl)c2)CC1	3	.	6%	0.72	.	.	.	.	6.4

Entries of single compounds as entered above.
COc1ccc(C(=O)N2CCC(O)(c3ccc(Cl)cc3)CC2)cc1OC is listed with ALR H2O2 inh = -11; MLL AF4-AF9 inh = .; Vif TR-FRET = .; E coli growth = 0.64; Ecoli rRNA inh = -6; Ecoli rRNA inh OD600 = -17; Ecoli rRNA inh RFP = -2.2; FGF22 binding = i; HNF4A DNA FP = 4.2
Cc1ccc(CN(C(=O)COc2ccc(Br)cc2)C2CCS(=O)(=O)C2)o1 (centres undefined) is listed with ALR H2O2 inh = -5; MLL AF4-AF9 inh = 5.5; Vif TR-FRET = -1%; E coli growth = 0.71; Ecoli rRNA inh = -10; Ecoli rRNA inh OD600 = -9; Ecoli rRNA inh RFP = 0.5; FGF22 binding = i; HNF4A DNA FP = -0.8
O=C(CSc1nc2ccccc2n1CCc1ccccc1)N1CCOCC1 is listed with ALR H2O2 inh = 16; MLL AF4-AF9 inh = -2.1; Vif TR-FRET = .; E coli growth = 0.7; Ecoli rRNA inh = -23; Ecoli rRNA inh OD600 = -29; Ecoli rRNA inh RFP = -8.0; FGF22 binding = i; HNF4A DNA FP = -6.7

Remaining list, next part.
SMILES	ALR H2O2 inh	MLL AF4-AF9 inh	Vif TR-FRET	E coli growth	Ecoli rRNA inh	Ecoli rRNA inh OD600	Ecoli rRNA inh RFP	FGF22 binding	HNF4A DNA FP
Cc1nn(CC(O)Cn2cnc3c2c(=O)n(C)c(=O)n3C)c(C)c1Br (centres undefined)	-3	.	5%	0.68	.	.	.	.	0.0
Fc1ccccc1CSc1nnc(-c2cnccn2)n1Cc1ccco1	24	-2.5	18%	0.67	-24	-29	3.6	i	1.5
CN(C)c1ccc(C(=O)OCC(=O)NCC2CCCO2)cc1 (centres undefined)	6	.	-2%	0.73	6	-2	-3.7	.	-2.8
O=C(CN(Cc1ccco1)C(=O)c1ccc(F)cc1F)Nc1ccccc1C(F)(F)F	-14	-6.5	-6%	0.68	.	.	.	i	4.2

Some of the compounds tested (hit frequency here may not be typical).
